TRPML1 agonist: agonists of human TRPML1 channel; AID 624414; Q9GZU1; 410,000 compounds, 0.12% hits; TRPML1-expressing cells, Ca2+ dye fluorescence, FDSS; host cell line not named in the record; reference of the full effect not given here; activation, % (test concentration not listed); in the data active = activation above about 50%; inconclusive = about 30% to 50%; inactive = below about 30%; further: 0% is about no effect; the text of the record puts the active cut at 80%
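Tetracycline-induced TRPML1-DL cells are seeded and incubated overnight before loading with a no-wash Ca2+ dye and quencher. Agonist activity is taken from the 110 s fluorescence read following compound pin-transfer on an FDSS, before EC80 54-4 challenge.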
TRPML1 blocker: inhibitors of human TRPML1 channel; Q9GZU1; TRPML1-inducible cells, Ca2+ dye fluorescence, FDSS; hits give low values; inhibition of EC80 agonist-evoked calcium signal; activity change, negative = inhibition, % (concentration not given with the values); 390,000 compounds, 0.02% hits; in the data active means activity change below about -50%; inconclusive means about -30% to -50%; inactive means above about -30%;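 further: stimulus is agonist 54-4 at its EC80 concentration; on the % scale 0 is the no-effect control and ±100 the full control effect; the text of the record puts the active cut at -80%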
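Tet-induced TRPML1-DL cells loaded with Ca8 no-wash calcium dye were read kinetically on FDSS. Compound addition was followed by EC80 agonist 54-4 (4 uM final); inhibition was read over 110 s.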
TRPV1 PAM: potentiators of human vanilloid receptor 1 (TRPV1). TRPV1-expressing cells, Fluo-8 calcium influx, capsaicin EC20 potentiation; host cell line not named in the record; control for the full effect not named in the record. potentiation, % at 8.33 µM. AID 540277. 320,000 compounds, 0.02% hits; active means potentiation above 80%; inconclusive means 30% to 80%; inactive means below 30%; further: 0% is about no effect
Target sequence (Q8NER1 whole entry, looked up): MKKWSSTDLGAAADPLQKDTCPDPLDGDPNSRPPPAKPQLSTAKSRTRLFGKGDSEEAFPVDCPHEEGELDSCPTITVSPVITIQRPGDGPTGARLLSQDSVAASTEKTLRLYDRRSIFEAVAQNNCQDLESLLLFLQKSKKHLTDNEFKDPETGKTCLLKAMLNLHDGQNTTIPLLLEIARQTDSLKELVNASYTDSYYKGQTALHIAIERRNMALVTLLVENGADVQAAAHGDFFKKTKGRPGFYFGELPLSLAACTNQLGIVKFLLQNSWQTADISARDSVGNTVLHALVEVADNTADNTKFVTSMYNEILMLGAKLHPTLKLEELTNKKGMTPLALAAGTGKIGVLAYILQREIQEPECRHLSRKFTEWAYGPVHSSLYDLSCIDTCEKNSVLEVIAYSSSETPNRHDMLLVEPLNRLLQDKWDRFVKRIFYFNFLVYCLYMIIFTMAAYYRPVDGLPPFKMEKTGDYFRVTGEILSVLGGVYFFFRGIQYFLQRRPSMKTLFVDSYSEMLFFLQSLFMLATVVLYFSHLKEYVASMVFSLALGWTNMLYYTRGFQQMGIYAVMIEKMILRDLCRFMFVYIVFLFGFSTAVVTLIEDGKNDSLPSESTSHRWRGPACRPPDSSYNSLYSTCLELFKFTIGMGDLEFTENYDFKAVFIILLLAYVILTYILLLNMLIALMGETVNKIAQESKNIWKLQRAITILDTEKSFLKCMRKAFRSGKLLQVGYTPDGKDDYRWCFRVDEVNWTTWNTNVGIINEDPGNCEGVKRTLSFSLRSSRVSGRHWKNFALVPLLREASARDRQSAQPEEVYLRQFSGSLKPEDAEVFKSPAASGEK
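Fluo-8 calcium influx in TRPV1-expressing cells, kinetic read (ex 480/em 520 nm). Compound added and read 3 min for agonist activity, followed by capsaicin at EC20 final and 2 min further read for enhancement.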
Six1-Eya2 blk: inhibitors of human Six1/Eya2 interaction. Q15475+O00167. activity change, % (no concentration beside the values). AlphaScreen GST-Six1/His-Eya2 binding, biochemical; hits give low values; control for the full effect not named in the record. AID 651725. 360,000 compounds, 0.56% hits; in the data active = activity change below about -65%; inconclusive = about -30% to -65%; inactive = above about -30%; further: on the % scale 0 is the no-effect control and ±100 the full control effect
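AlphaScreen with GST-Six1 and His-Eya2 (5X mix: 250 nM and 500 nM), glutathione donor and nickel acceptor beads; buffer 50 mM Tris pH 8.0, 300 mM NaCl, 1 mM TCEP; 1 h at 37 C in the dark.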
D2 potentiator: potentiates the human D2 dopamine receptor allosterically; 360,000 compounds, 0.23% hits; DiscoveRx D2 beta-arrestin cells, luminescence, 90 min; 100% = 57 uM dopamine signal; potentiation, % (test concentration not listed); AID 624464; P14416; active = potentiation of 50% or more; inconclusive = 30% to 50%; inactive = 30% or less;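 further: compound concentration not given in the record; tested on top of an EC20 dose of dopamine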
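D2 cells co-treated with compound plus 50 nM dopamine (EC20) for 90 min at 37 deg C to detect potentiation. Beta-arrestin recruitment was read as enzyme-fragment luminescence after 1 h at ambient temperature. Full response was set by 57 uM dopamine.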
CtBP-E1A blk: blocks the CtBP interaction with E1A. 340,000 compounds, 0.49% hits. AlphaScreen GST-E1A/His-CtBP binding, 1536-well; hits give low values; control for the full effect not named in the record. activity change, % (test concentration not listed). AID 651724; in the data active means activity change below about -65%; inconclusive means about -30% to -65%; inactive means above about -30%; further: on the % scale 0 is the no-effect control and ±100 the full control effect
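In 5 uL wells, 23 nL compound meets equimolar GST-E1A and His-CtBP (5X stock 125 nM each) for 2 h, 37 °C. Beads (5X, 50 ug/mL) then 1 h, 37 °C, dark.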
* hit, by the source's call; ? = inconclusive; / = no result given; & = joins results of further samples.

Structure	TRPML1 agonist	TRPML1 blocker	TRPV1 PAM	Six1-Eya2 blk	D2 potentiator	CtBP-E1A blk
CCOC(=O)C1(Cc2ccc(OC)cc2)CCN(C(=O)c2cccc3nccnc23)CC1	0.8	15	1	15	-7	/
CCOC(=O)c1[nH]cnc1C(=O)Nc1ccc(F)cc1	1.5&2.3	-16&20	-2	-20	7	3
O=C(Nc1cccc(F)c1)Nc1ccnn1C1CCN(C(=O)CCN2CCCO2)CC1	-0.1	-3	6	1	-15	-3
COc1ccc(CN2CCN(S(=O)(=O)c3ccc(NC(C)=O)cc3)CC2)cc1OC	1.4	-14	1	2	-1	9
CCOc1ccccc1OCCC(=O)N1CCN(S(=O)(=O)c2ccccc2[N+](=O)[O-])CC1	0.1	4	1	-8	-1	-2
Cc1nn(-c2ccccc2)c(Cl)c1/C=N/NC(=O)c1ccco1	0.0	-7	/	-4	-1	-4
Cc1c(C(=O)N2CCCC(C)(C(=O)NS(=O)(=O)C3CC3)C2)oc2ccccc12 (stereo unspecified)	-0.2	/	/	4	-1	8
O=C(COC(=O)Cn1cnc2ccccc21)Nc1ccccc1C(F)(F)F	0.2	15	/	0	-1	2
O=C(N/N=C1\CCc2ccccc21)c1ccccc1O	-0.1	-4	-11	0	-34	-16
O=C(NNC1CC(=O)N(c2ccccc2)C1=O)c1cccnc1 (stereo unspecified)	4.6	-10	7	3	-1	3
CC(=O)c1ccc(OCC(O)COc2ccc(C(C)=O)cc2)cc1	-0.4	-8	2	-1	-6	9
Clc1cccc(-c2nc(NCCCN3CCOCC3)c3ccccc3n2)c1	0.4	5	-18	6	-6	/
Cc1cccc(C(=O)OCC(=O)N2CCCC2=O)c1O	-0.7	3	-8	1	-2	29
CCN1CCN(c2c(C(=O)c3ccc(OC)cc3)cnc3ccccc23)CC1	0.8	10	9	1	-1	2
COc1cc(/C=C2\SC(=Nc3ccc(N4CCOCC4)cc3)N(C)C2=O)ccc1OC(C)C(=O)O (stereo unspecified)	-0.4	4	?	-10	1	1
O=C(NNS(=O)(=O)c1ccc(Br)cc1)c1ccncc1	-0.2	-3	-2	3	-6	4
Cc1ccc(/C=C2\SC(=S)N(CCC(=O)NNC(=O)c3ccccc3O)C2=O)cc1	0.6	-4	1	5	-2	-2
CCCC(c1nnnn1Cc1ccc(F)cc1)N1CCN(C2CCCCC2)CC1 (stereo unspecified)	1.7	6	11	-6	-21	-1
C=CCn1c2ccccc2c2nnc(SCC(=O)OC)nc21	-1.1	3	/	-4	-14	-2
CCCCNC(=O)Nc1ccc(Br)cn1	0.6	1	-11	6	-9	1
COc1ccc(Cl)cc1C(=O)NNC(=O)COC(=O)CCN=C1NS(=O)(=O)c2ccccc21	-0.7	-15	25	-10	-53	-2
O=C(CNC(=O)c1ccc(Br)o1)NNC(=O)c1ccccc1F	-0.3	-10	-3	6	7	-1
CCNC(=O)C1(C)CCN(Cc2cccc(Oc3ccccc3)c2)C1 (stereo unspecified)	-0.3	/	/	6	-12	1
CC(=O)N1CSCC1C(=O)NNS(=O)(=O)c1ccccc1 (stereo unspecified)	0.4	48	28	-2	-5	1
COc1ccc(S(=O)(=O)N(CC(N)=O)C2CCCCC2)cc1Cl	0.0	-10	9	8	-1	2
N#CC(C#N)=C1C=CC=CN1/C(=C\c1ccccc1)C(=O)c1cccs1	2.8	-15	14	-22	-6	-25
O=c1c(Cc2c(F)cccc2Cl)c(O)ccn1CC1CCCO1 (stereo unspecified)	-0.1	10	?	-1	-1	7
Cn1cccc1C(=O)OCC(=O)Nc1cc(C(C)(C)C)nn1-c1ccccc1	0.8	5	23	-7	-7	6
COC(=O)c1c(-c2ccsc2)oc2ccc(-c3cc(OC)c(OC)c(OC)c3)cc12	1.5	40	/	17	-9	-12
CCN(CC)Cc1c(O)ccc2c(=O)c(-c3ccc(Cl)cc3)coc12	0.4	-22	-4	3	-5	-16
CCN(CC(=O)Nc1ccc(NC(C)=O)cc1)CC(=O)Nc1ccc(F)c(Cl)c1	-0.4	-1	4	-1	7	-1
O=c1nc(/C=C/c2ccccc2C(F)(F)F)cc(C(F)(F)F)[nH]1	0.9	11	1	-3	-10	/
CC(C)(C)C(=O)NC1(C(F)(F)F)NC(=O)N(c2ccccc2F)C1=O (stereo unspecified)	-0.6	0	2	3	-4	4
CCOC(=O)NC1(C(F)(F)F)NC(=O)N(c2ccc(F)cc2)C1=O (stereo unspecified)	-0.5	-9	-4	3	-2	16
CC12CCC(=O)N1C(C(=O)Nc1ccccc1N1CCOCC1)CS2 (stereo unspecified)	0.2	-13	-4	-1	-10	1
CN1CCC(N(C)C(=O)c2ccccc2F)CC1	0.2	-8	8	7	-3	/
CCCCOC(=O)Nc1nnc(C(C)C)s1	0.9	-3	-6	28	-1	-8
CCN(CC(=O)Nc1c(F)cccc1F)C(=O)C1CC(=O)N(c2ccccc2OC)C1 (stereo unspecified)	-0.4	-2	14	13	-17	5
Cc1nc(C(=O)NC2CC2)sc1C1(C)CC(c2cccc([N+](=O)[O-])c2)=NO1 (stereo unspecified)	0.1	-13	-7	-6	-3	0
Cc1[nH]c(=O)c(Cc2ccccc2)c(O)c1C#N	-0.1	5	/	-9	-3	1
O=C(c1cc2ccccc2cc1O)N1CCN(c2ccccn2)CC1	-0.2	-13	3	6	-9	2
Cc1ccc(C(=O)NCc2n[nH]c(=S)n2-c2ccccc2)cc1[N+](=O)[O-]	0.7	17	5	-5	-6	-20
Nc1nnc(SCC(=O)Nc2cc(S(=O)(=O)N3CCOCC3)ccc2N2CCCC2)s1	0.0	0	-6	5	-1	7
COc1cccc(/C=C/c2[nH]c(=O)[nH]c(=O)c2[N+](=O)[O-])c1O	-1.3	-6	1	-25	-3	-28
OCCNc1cnc2ccccc2n1	0.6	1	9	-1	-5	/
CN1C(=O)CSc2ccc(NC(=O)N3CCC(N4CCCCC4)CC3)cc21	0.0	1	4	0	3	4
Cc1noc(C)c1COC(=O)C1CCN(C(=O)c2ccc(Cl)cc2)CC1	-0.3	-4	-3	-1	-1	-3
CCC(CC)CN1CCC(CN2C(=S)NC[C@@H]2CC(C)C)CC1	-0.3	9	/	0	-15	0
COc1ccc(/C=N/NC(=O)COc2ccccc2-c2ccccc2)cc1	2.4	-12	?	-6	2	0
O=C(c1cnc2n(c1=O)CCS2)N1CCN(c2ccc(Cl)c(Cl)c2)CC1	-0.4	-5	-4	-13	-13	-17
Nc1nc(NCc2ccco2)nc(N2CCCCCC2)c1[N+](=O)[O-]	3.0	21	-6	?	-3	9
CCC1=C(CC2NCCc3ccccc32)CC2c3cc(OC)c(OC)cc3CCN2C1 (stereo unspecified)	0.8	-4	/	3	-36	-22
Cc1cccc(C)c1NC(=O)C(=O)c1cn(C)c2ccccc12	-0.7	5	-10	-4	-1	2
CCOC(=O)c1c(CSc2ccccc2)n(C)c2ccc(O)c(CN3CCN(C)CC3)c12	0.4	44	8	-16	-17	?
COc1ccc(NCC(O)COc2ccc(C(C)(C)C)cc2)cc1 (stereo unspecified)	0.1	-2	-5	?	9	-30
CCO/C=C1\SC(=S)N(c2ccc(Cl)cc2)C1=O	0.3	-3	11	-6	-9	-1
CN(CC(=O)Nc1ccc(Cl)c(C(F)(F)F)c1)C(=O)CCN1C(=O)C2CCCCC2C1=O (stereo unspecified)	0.3	6	-8	-1	-2	1
Cc1ccc(S(=O)(=O)Nc2ccc(C(OC(=O)c3ccccc3[N+](=O)[O-])(C(F)(F)F)C(F)(F)F)cc2)cc1	1.2	8	6	-3	-5	18
Cc1ccc(CNc2nc(Cl)c(C#N)s2)cc1	-1.1	-11	-2	4	3	5
O=[N+]([O-])c1ccc(-c2c[nH]c(=S)[nH]2)cc1	-0.3	-1	-10	-10	-1	1

More entries follow:
Structure	TRPML1 agonist	TRPML1 blocker	TRPV1 PAM	Six1-Eya2 blk	D2 potentiator	CtBP-E1A blk
COc1ccc(NS(=O)(=O)c2cc(N)ccc2N2CCCC2)cc1	-0.4	-10	/	-24	14	-8
CCOc1ccc(/C(O)=C2/C(=O)C(=O)N(CCN(CC)CC)C2c2ccco2)cc1 (stereo unspecified)	0.2	8	1	-4	-19	2
CCOc1ccc(N(CC(=O)NC2CC3CCC2C3)S(=O)(=O)c2ccccc2)cc1 (stereo unspecified)	4.0	-6	-8	7	-18	-4
O=C(CCn1cccc1)N1CCc2ccccc21	0.2	39	18	-6	-18	-14
CCC(=O)n1nc(-c2ccco2)nc1N	0.7	15	5	-5	-17	1
Cc1ccccc1-c1nnn(C/C(N)=N/O)n1	1.1	15	1	8	-3	-8
COc1ccc(C2c3ccc4ccccc4c3Oc3ncn(Cc4ccco4)c(=N)c32)cc1OC (stereo unspecified)	1.7	-4	26	-14	3	3
Cn1c(SCC(=O)NC2CC2)nnc1-c1ccco1	-0.2	4	7	1	-6	2
O=C(CCS(=O)(=O)c1cccc2nsnc12)N1CCN(C(=O)c2ccco2)CC1	-0.8	-10	-6	4	-10	-1
CCOC1CC(C)(C)NC(=S)N1 (stereo unspecified)	-0.3	18	12	1	-6	4
Cc1ccc(N(C(=O)c2csnn2)C(C(=O)NC2CCCCC2)c2cccnc2)cc1 (stereo unspecified)	-0.2	-7	3	0	-8	4
O=C(Nc1oc2ccccc2c(=O)c1-c1ccc(Br)cc1)c1ccco1	1.6	-26	-6	-2	-3	/
CC1=C(C(=O)N(C)C)CC(CC(=O)NCc2cccc3ccccc23)C(=O)N1CCC1=CCCCC1 (stereo unspecified)	-0.6	18	/	-5	-2	2
CC(OC(=O)Cc1c[nH]c2ccccc12)C(=O)Nc1ccccc1F (stereo unspecified)	-0.2	1	15	4	-3	3
O=C(Cc1csc(NC(=O)Nc2cccc(Cl)c2)n1)NCc1ccccn1	-0.3	9	1	-12	22	-7
O=C(NCCc1ccc(F)cc1)C1CCN(C(=O)Nc2ccccc2)CC1	0.0	23	-3	1	-8	1
Cc1ccc(C(=O)N/C(=C\c2ccco2)C(=O)NCCN2CCOCC2)cc1C	0.4	7	-5	0	-23	1
Cn1c(N)c(C(=O)Nc2ccccc2)c(=O)[nH]c1=O	-0.5	17	/	-7	-6	0

Random excerpt: five entries already listed
Structure	TRPML1 agonist	TRPML1 blocker	TRPV1 PAM	Six1-Eya2 blk	D2 potentiator	CtBP-E1A blk
O=C(Nc1oc2ccccc2c(=O)c1-c1ccc(Br)cc1)c1ccco1	1.6	-26	-6	-2	-3	/
O=C(CCn1cccc1)N1CCc2ccccc21	0.2	39	18	-6	-18	-14
O=C(NCCc1ccc(F)cc1)C1CCN(C(=O)Nc2ccccc2)CC1	0.0	23	-3	1	-8	1
CCC(=O)n1nc(-c2ccco2)nc1N	0.7	15	5	-5	-17	1
Cc1ccc(N(C(=O)c2csnn2)C(C(=O)NC2CCCCC2)c2cccnc2)cc1 (stereo unspecified)	-0.2	-7	3	0	-8	4

Source: PubChem
